SARS PLP yeast – blocks SARS-CoV papain-like protease in a yeast assay; S. cerevisiae expressing SARS-CoV PLpro, growth rescue; control for the full effect not named in the record; Potency, µM (series often up to 32.9 µM), for the others: at the highest dose activity, positive = growth rescue; 330,000 compounds, 0.19% hits; active means well fitted rising curve with a large enough effect; inconclusive means small, poorly fitted or top-dose-only effect; inactive means no such curve, though single readings can be large or run the other way; further: 0% is about no effect; nearly all actives have a fitted effect of over 55% in size; growth read by luminescence after 48 h
Cruzain noTriton – cruzain (T. cruzi) inhibition without detergent. purified cruzain, Z-FR-AMC fluorescence, no detergent. Potency, µM, for the others: max response, negative = inhibition, most hits filed as inhibitors. 200,000 compounds, 2.3% hits;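 further: plate controls were enzyme without inhibitor for no effect and buffer without enzyme for full effect; nearly all actives have a fitted effect of over 40% in size; top concentration of the series not given in the record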
Target sequence (P25779 123-467 limits assumed): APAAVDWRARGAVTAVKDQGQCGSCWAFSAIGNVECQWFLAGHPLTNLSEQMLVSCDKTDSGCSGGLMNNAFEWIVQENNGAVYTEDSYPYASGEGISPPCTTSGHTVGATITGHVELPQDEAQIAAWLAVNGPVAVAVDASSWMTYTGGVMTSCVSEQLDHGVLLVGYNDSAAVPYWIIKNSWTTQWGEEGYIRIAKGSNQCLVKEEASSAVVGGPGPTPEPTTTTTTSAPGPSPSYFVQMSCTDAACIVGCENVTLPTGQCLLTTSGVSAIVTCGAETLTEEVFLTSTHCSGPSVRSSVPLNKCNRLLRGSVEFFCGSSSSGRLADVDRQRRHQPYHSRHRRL
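Detergent-free condition (0.00005% Triton X-100) in acetate buffer pH 5.5 with DTT. 1.5 nM enzyme and compound were pre-mixed 15 min, then 2 uM Z-FR-AMC substrate added; reaction progress from fluorescence change between first and third reads (60 s).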
Cruzain Triton – cruzain (T. cruzi) inhibition with detergent; P25779; purified cruzain, Z-FR-AMC fluorescence, 0.01% Triton; Potency, µM, inactives show max response, negative = inhibition, hits mostly inhibitors; 200,000 compounds, 0.43% hits;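 further: plate controls were neutral wells for no effect and buffer without enzyme for full effect; nearly all actives have a fitted effect of over 40% in size; top concentration of the series not given in the record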
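Compounds were screened in titration against cruzain (1.5 nM) with 0.01% Triton X-100 to counter colloidal aggregation. Activity was the AMC fluorescence increase over 60 s after adding 2 uM Z-FR-AMC at pH 5.5.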
RE007 growth inh – less growth of the S. pombe RE007 Vpr strain. S. pombe RE007 Vpr strain, BacTiter-Glo ATP luminescence, 24 h; control for the full effect not named in the record. Potency, µM (doses to about 92.2 µM), without a hit: at the top dose activity change, negative = less growth. 360,000 compounds, 0.21% hits; active = well fitted falling curve with a large enough effect; inconclusive = small, poorly fitted or top-dose-only effect; inactive = no such curve, though single readings can be large or run the other way;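 further: on the % scale 0 is the no-effect control and ±100 the full control effect; nearly all actives have a fitted effect of over 50% in size; the assay follows cell death caused by Vpr and the record does not say whether a fall means rescue or toxicity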
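Fission yeast strain RE007, carrying one chromosomally integrated HIV-1 vpr copy, was seeded at OD 0.01 in PMG+AL medium with 23 nL pinned compound. After 24 h at 30 °C and 99% humidity, viability was read by BacTiter-Glo luminescence.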
Marburg entry inh – blocks Marburg virus binding to or entry into cells; Marburg virus pseudotyped entry inhibition, cell reporter; control for the full effect not named in the record; about a third of the inactives were read at about 46 µM; 300,000 compounds, 1.8% hits; Potency, µM (titrated, usually from 37.8 µM), for the others: at the top dose activity change, negative = inhibition, most hits filed as inhibitors; active = well fitted inhibition curve with a large enough effect; inconclusive = small, poorly fitted or top-dose-only effect, or effect the other way; inactive = flat fitted curve, though single readings scatter; tested in HEK293 cells; about a fifth of its hits are not listed in these tables; further: on the % scale 0 is the no-effect control and ±100 the full control effect; luciferase read-out
LASV entry inh – blocks Lassa virus binding to or entry into cells; Lassa virus pseudotype entry inhibition, cell reporter; control for the full effect not named in the record; Potency, µM (top dose mostly 37.9 µM), without a hit: at the highest dose activity change, negative = inhibition, usual class: inhibitors; 300,000 compounds, 1.2% hits; AID 540256; active means well fitted inhibition curve with a large enough effect; inconclusive means small, poorly fitted or top-dose-only effect, or effect the other way; inactive means flat fitted curve, though single readings scatter; tested in HEK293 cells; further: on the % scale 0 is the no-effect control and ±100 the full control effect; nearly all actives have a fitted effect of over 50% in size; luciferase read-out
NS1 function inh – inhibitors of influenza NS1 protein function; Potency, µM (series often up to 46.1 µM), for inactives: top-dose activity, positive = more growth; S. cerevisiae slowed by influenza A NS1, growth recovery by OD600; AID 2326; 270,000 compounds, 0.4% hits; active means well fitted rising curve with a large enough effect; inconclusive means small, poorly fitted or top-dose-only effect; inactive means no such curve, though single readings can be large or run the other way; further: nearly all actives have a fitted effect of over 50% in size
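S. cerevisiae expressing influenza A NS1, grown in glucose, washed, then diluted 1:100 into pH 6.0 -URA galactose medium with 23 nl compound. Growth recovery read as OD600; NS1-free strain serves as control.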
StopGo reporter – lowers the luciferase signal of an FMDV 2A StopGo reporter. 410,000 compounds, 1.2% hits. human cells with a luciferase reporter of 2A StopGo recoding; control for the full effect not named in the record. Potency, µM (titrated, usually from 57.9 µM), for the others: at the top dose signal change, negative = less light. AID 1159524; active = well fitted falling curve with a large enough effect; inconclusive = small, poorly fitted or top-dose-only effect; inactive = no such curve, though single readings can be large or run the other way; tested in HEK293T cells; further: on the % scale 0 is the no-effect control and ±100 the full control effect; nearly all actives have a fitted effect of over 45% in size; luciferase light after 4 h
* = called active by the depositor; ? = inconclusive; / = no result given; & = joins results of further samples; [ ] = dose if it differs, or a comment. Unless noted, the call rests on the fitted dose curve; in most records, active means well fitted curve in the direction sought with a large enough effect; inconclusive means small, poorly fitted or top-dose-only effect, or another doubt; inactive means no such curve, though single readings can be large; an effect the other way counts as inactive or inconclusive. Potency means the concentration at half of the fitted maximal effect.

SMILES	SARS PLP yeast	Cruzain noTriton	Cruzain Triton	RE007 growth inh	Marburg entry inh	LASV entry inh	NS1 function inh	StopGo reporter
COC(=O)N1CCN(c2ccc(OC)cc2)CC1	2%	3%	-2.8%	-4%	14%	4%	1%	-2%
CCC(CC)c1nc2ccccc2c(=O)[nH]1	-1%	/	/	8%	/	/	-2%	15%
COc1ccc(-c2csc(NC(=S)NC(=O)c3ccc4ccccc4c3)n2)cc1OC	1%	/	/	-1%	12%[46.1 µM]	?	15%	-8%
O=C(Nc1ccccn1)c1cccs1	/	1%	5.7%	-30%	?	7%	-67%	50%[activator]
Clc1cccc(N2CCNCC2)n1	-1%	/	/	-10%	?	-8%	6%	-6%
CCOC(=O)N1CCN(C(=O)c2cc(COc3ccc(F)cc3F)on2)CC1	2%	/	/	18%	?	2%	-26%	52%[activator]
COc1ccc(S(=O)(=O)n2ccc(-c3cnc(-c4ccccc4)s3)n2)cc1	-2%	?	-2.3%	-22%	?	?	?	-16%
Cc1ccc(S(=O)(=O)c2nnn3c2nc(NCc2ccc4c(c2)OCO4)c2sccc23)cc1C	/	25µM*	-5.7%	/	/	5%[46.1 µM]	/	-22%
COc1ccc(S(=O)(=O)N2CCOC2CNC(=O)C(=O)NCc2cccnc2)cc1OC (configuration not stated)	-1%	/	/	2%	/	/	-1%	-8%
CCCN1C(C(=O)c2ccccc2)=C(OC(=O)COc2ccc(C)cc2)c2ccccc2S1(=O)=O	/	-15%	-10%	/	?	?	/	0%
CC(=O)Nc1cccc(NC(=O)c2ccc(C(=O)Nc3cccc(NC(C)=O)c3)nc2)c1	0%	/	/	-4%	-1%[46.1 µM]	10%[46.1 µM]	9%	16%
CNC(=O)CSc1nnnn1-c1cc(C)ccc1C	2%	-8%	1.3%	-17%	-15%[46.1 µM]	2%	7%	2%
O=C(Nc1ccc(Cl)c(Cl)c1)Nc1ccc(Br)cc1F	-75%	?	-8.4%	-16%	?	?	-42%	?
O=C1NC2(CCCCC2)N=C1c1ccc(F)cc1	-12%	0%	5.0%	10%	-16%	-18%[14.3 µM]	-31%	-15%
COc1ccc(N2CC(C(=O)N3CCN(c4ccccc4)CC3)CC2=O)cc1 (configuration not stated)	17%	/	/	12%	?	-1%	13%	-21%

Structures listed so far that contain fluorine (3):
SMILES	SARS PLP yeast	Cruzain noTriton	Cruzain Triton	RE007 growth inh	Marburg entry inh	LASV entry inh	NS1 function inh	StopGo reporter
CCOC(=O)N1CCN(C(=O)c2cc(COc3ccc(F)cc3F)on2)CC1	2%	/	/	18%	?	2%	-26%	52%[activator]
O=C(Nc1ccc(Cl)c(Cl)c1)Nc1ccc(Br)cc1F	-75%	?	-8.4%	-16%	?	?	-42%	?
O=C1NC2(CCCCC2)N=C1c1ccc(F)cc1	-12%	0%	5.0%	10%	-16%	-18%[14.3 µM]	-31%	-15%

More structures follow:
SMILES	SARS PLP yeast	Cruzain noTriton	Cruzain Triton	RE007 growth inh	Marburg entry inh	LASV entry inh	NS1 function inh	StopGo reporter
CCCCNc1nc(-c2ccccc2)c(C(=O)OCC)cc1C#N	-8%	-4%	-12%	11%	?	11µM*	-24%	-15%
O=C(CN1C2CCCC1CC(NC(=O)C1CCCCC1)C2)NCc1ccc(F)cc1 (configuration not stated)	1%	/	/	2%	/	/	-3%	-26%
Cc1[nH]c2c(C)cccc2c1CN1CCC(CO)(Cc2ccccc2)CC1	0%	/	/	-8%	/	/	0%	-24%
O=C(NCC1CCCO1)C1CC(=O)N(c2ccc(F)c(Cl)c2)C1 (configuration not stated)	3%	-5%	3.5%	-4%	/	/	-3%	-11%
CN(C)c1cc(N/N=C/c2ccc(Cl)cc2)nc(N(C)C)n1	-13%	/	/	-23%	?	12µM*	/	-13%
COc1cc(C(=O)OCc2csc(CC(=O)Nc3ccccc3C)n2)ccc1OCC(C)C	-7%	/	/	-2%	?	-15%	/	-27%
COc1ccc(S(=O)(=O)NC2CCCC2)cc1Br	-6%	1%	-3.1%	-6%	12%	-1%	-46%	41%[activator]
O=C(CN(Cc1ccco1)C(=O)CNS(=O)(=O)c1ccc(F)cc1)NCc1ccco1	0%	/	/	2%	-6%[46.1 µM]	3%	5%	11%
COc1ccccc1N1CCN(CCCCOc2ccc(F)cc2)CC1	-3%	10%	8.6%	-1%	?	?	-1%	0%
CCN(c1ccccc1)S(=O)(=O)c1cccc(C(=O)O)c1	4%	0%	-2.7%	0%	-2%	6%	-4%	/
O=C(NCCC1=CCCCC1)C(=O)NCc1ccncc1	1%	/	/	23%	-4%[46.1 µM]	1%[46.1 µM]	-4%	-4%
COC(=O)c1ccccc1NC(=O)c1ccc2c(c1)CCN2S(=O)(=O)c1ccc(C)cc1	/	-5%	0.5%	/	6%[46.1 µM]	1%[46.1 µM]	/	-17%
COc1ccc(CC(=O)Nc2ccccc2N2CCCCC2)cc1OC	-1%	/	/	1%	21%[14.2 µM]	-2%	-7%	?
Cc1cc(C(=O)NC2CCCN(Cc3ccc(Cl)cc3)C2)c(C)o1 (configuration not stated)	-5%	/	/	-18%	6%	-2%	7%	-19%
O=C(O)c1ccc2ncc(NC(=O)c3ccc(F)cc3)c(=O)n2c1	-1%	/	/	-13%	1%	?	2%	16%

Grouped by structure: those above containing a thiophene ring, fused or not
SMILES	SARS PLP yeast	Cruzain noTriton	Cruzain Triton	RE007 growth inh	Marburg entry inh	LASV entry inh	NS1 function inh	StopGo reporter
O=C(Nc1ccccn1)c1cccs1	/	1%	5.7%	-30%	?	7%	-67%	50%[activator]
Cc1ccc(S(=O)(=O)c2nnn3c2nc(NCc2ccc4c(c2)OCO4)c2sccc23)cc1C	/	25µM*	-5.7%	/	/	5%[46.1 µM]	/	-22%

New compounds follow.
SMILES	SARS PLP yeast	Cruzain noTriton	Cruzain Triton	RE007 growth inh	Marburg entry inh	LASV entry inh	NS1 function inh	StopGo reporter
CCOC(=O)/C(C(N)=NCc1ccco1)=C(/O)c1ccccc1	-3%	1%	-5.7%	2%	-18%	-7%	-20%	-12%
Cc1ccc(-c2noc(CSc3nnc(Cc4ccccc4)n3-c3cccc(C)c3)n2)cc1	-10%	5%&-2%	-11%&-6.0%	9%	?	?	9%	?
COc1ccccc1CNS(=O)(=O)c1ccc(N2CCCCS2(=O)=O)cc1	/	-2%	0.3%	/	/	-1%[46.1 µM]	/	-17%
COc1cc(NCCCNC(C)C)c2nccc(C)c2c1	/	/	/	-19%	?	5%[46.1 µM]	/	-14%
C/C=C/c1ccc(OCC(=O)NCc2ccccc2OC)c(OC)c1	-8%	/	/	-17%	15%[46.1 µM]	?	/	-4%
CCN1CCN(Cc2c(C)[nH]c3ccc(OC)cc3c2=O)CC1	0%	-8%	2.9%	-12%	-4%	2%	-3%	-2%
CNC(=O)C1CCC(Cn2c(=O)c3sccc3n(CC(=O)NCc3ccc(F)cc3)c2=O)CC1 (configuration not stated)	/	11%	0.9%	/	/	-9%[46.1 µM]	/	-20%
O=C(CSCc1ccc(F)cc1)N1CCN(c2ccc(Cl)cc2)CC1	/	-4%	0.0%	/	/	-10%[46.1 µM]	/	?
COc1cccc(OCCn2c(-c3ccc(Br)cc3)nc3ccccc3c2=O)c1	/	-15%	0.0%	/	25%[46.1 µM]	12%[46.1 µM]	/	18%
CCN(CCCNC(=O)c1cc2cc3ccc(C)cc3nc2s1)c1ccccc1	/	-4%	-2.1%	/	12%[46.1 µM]	?	/	-13%
NC(=O)COC(=O)c1cc(S(=O)(=O)N2CCOCC2)ccc1N1CCCCC1	-1%	-13%	-2.5%	27%	?	16%	-9%	5%
O=C(CN1C2=NCCCN2c2ccccc21)c1ccc(Cl)cc1Cl	-1%	9%	-4.7%	-14%	?	?	-2%	-27%
CC(=O)OC1(c2ccccc2)CC(C(C)(C)C)CN(C(C)(C)C)C1 (configuration not stated)	-5%	0%	0.0%	-9%	?	7%	-4%	2%
CCCCCCCCCCCCCCCC(=O)Nc1ccn(C2OC(CO)C(O)C2O)c(=O)n1 (configuration not stated)	/	/	/	1%	?	-7%[46.1 µM]	/	-18%
COc1ccccc1OC(=O)Nc1ccc(Cl)cc1	0%	/	/	-1%	/	/	-3%	8%
Cc1ccc(C(=O)O)cc1NC(=O)c1ccc2c(c1)C(=O)N(c1ccc([N+](=O)[O-])cc1)C2=O	-1%	/	/	-19%	14%[46.1 µM]	3%[46.1 µM]	2%	6%
COC(=O)[C@H](Cc1ccccc1)NC(=O)N1CCCCCC1	1%	/	/	9%	/	/	7%	-5%
CN(NC(=O)c1ccccc1F)c1nc(C(F)(F)F)nc2ccccc12	0%	/	/	7%	?	?	/	-6%
Cc1cccc(CN2CCC(Oc3ccc(C(=O)N4CCCC4)cc3)CC2)n1	-4%	/	/	7%	19%	0%	1%	-18%
COc1ccc(N2CCN(S(=O)(=O)CCNC(=O)Cc3ccc([N+](=O)[O-])cc3)CC2)cc1	-3%	/	/	10%	-6%[46.1 µM]	-5%[46.1 µM]	-3%	0%
CCOC(=O)N1CCC(N2CCN(S(=O)(=O)c3ccc4ccccc4c3)CC2)CC1	-8%	3%	-0.3%	0%	-22%	-29%[14.3 µM]	-19%	-24%
CCCCc1cc(=O)oc2c3c(cc(OCC(=O)N4CCC[C@H]4C(=O)O)c12)OC(C)(C)CC3	-9%	/	/	25%	/	/	?	-7%

A section from further up, for reference:
SMILES	SARS PLP yeast	Cruzain noTriton	Cruzain Triton	RE007 growth inh	Marburg entry inh	LASV entry inh	NS1 function inh	StopGo reporter
CCOC(=O)N1CCC(N2CCN(S(=O)(=O)c3ccc4ccccc4c3)CC2)CC1	-8%	3%	-0.3%	0%	-22%	-29%[14.3 µM]	-19%	-24%
CCCCc1cc(=O)oc2c3c(cc(OCC(=O)N4CCC[C@H]4C(=O)O)c12)OC(C)(C)CC3	-9%	/	/	25%	/	/	?	-7%

Source: PubChem BioAssay

Compounds as they come, and some 4.5% of all compounds hit somewhere here.
